VACV E9 pol inh – blocks vaccinia virus processive DNA synthesis | normalized absorbance, % (no concentration beside the values) | in vitro processive DNA synthesis, absorbance read-out; active compounds read low; some inactives read as strong as hits | 46,000 compounds, 0.94% hits;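 active means replicate mean up to 90% and picked by the depositor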;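 further: 100% = median of the test wells of a plate; 100 nL library stock went into each well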
An asterisk follows results filed as active. Some of the compounds tested. The share of hits here may be higher or lower than overall.

The opening three records (preview)
no.	canonical_smiles	VACV E9 pol inh
1	O=C(NC1CCOC1=O)c1ccc(COc2ccc3ccccc3c2)o1 (stereo not drawn)	100
2	CCOc1ccc(NC(=O)CCCN2C(=O)/C(=C/c3ccc(Cl)cc3)SC2=S)cc1	100
3	COc1ccc(/C=C(/NC(=O)c2ccccc2)C(=O)N2CCCCC2)cc1	98

The list itself, repeating the preview:
no.	canonical_smiles	VACV E9 pol inh
1	O=C(NC1CCOC1=O)c1ccc(COc2ccc3ccccc3c2)o1 (stereo not drawn)	100
2	CCOc1ccc(NC(=O)CCCN2C(=O)/C(=C/c3ccc(Cl)cc3)SC2=S)cc1	100
3	COc1ccc(/C=C(/NC(=O)c2ccccc2)C(=O)N2CCCCC2)cc1	98
4	Cc1ccc(C(C)C)c(OCc2ccc(C(=O)Nc3ccccc3C(F)(F)F)o2)c1	100
5	NC(=O)c1c(/N=C/c2cc(Br)ccc2O)sc2c1CCC2	89
6	Cc1nc(C)c(C#N)c(-c2c(Cl)cccc2Cl)c1C#N	103
7	COc1cc(OC)cc(C(=O)c2ccc(C(=O)NC3(c4ccccc4)CC3)cc2)c1	100
8	CC(C)NC(=O)CN1C(=O)c2cccnc2Oc2ccccc21	102
9	COc1ccc(NCN2C(=O)CCC2=O)cc1	100
10	Cc1cc(C)cc(NC(=O)c2ccccc2C(=O)O)c1	100
11	CC(C)CNC1=NCCCS1	86
12	CC(Nc1ccccc1)C(=O)Nc1cc(C(F)(F)F)ccc1Cl (stereo not drawn)	100
13	COc1ccc(C(=O)CSc2nc3cc(C)ccc3cc2C#N)cc1	101
14	Cc1cc(N=Cc2cc(Cl)cc(Cl)c2O)no1	56*
15	Cc1nc2ccc(NC(=O)c3cccc(C(F)(F)F)c3)cc2o1	100
16	OC(CN1CCN(C2c3ccccc3-c3ccccc32)CC1)c1ccccc1 (stereo not drawn)	100
17	CCN(Cc1ccncc1)C(=O)c1cc2c(C)nn(-c3ccc(Cl)cc3)c2s1	96
18	COc1ccc(NC(=O)CSC2=NCCS2)cc1	99
19	CCCc1oc2cc(O)ccc2c(=O)c1Oc1ccccc1	97
20	CCN1C(=O)CSc2ccc(C(=O)NCCc3ccc(OC)c(OC)c3)cc21	92
21	CC(C)c1ccc(C2(C#N)C(=O)Nc3ccccc32)cc1 (stereo not drawn)	92
22	COCc1nc2ccccc2n1CC(C)C	103
23	CC(=O)Oc1ccc(-c2ccc(C(=O)NCCc3ccccn3)cc2)cc1	100
24	ClCCOc1ccc(Br)cc1OCCCl	97
25	CCCn1c(-c2cccs2)nc2ccccc21	110
26	NC(=O)c1ccccc1-n1ccnc1	111
27	CCOc1ccc(-c2nc3ccc(Br)cc3c(C(=O)O)c2C)cc1	101
28	CC(C)OC(=O)CCc1nc2ccccc2[nH]c1=O	103
29	CCN(CC)S(=O)(=O)c1ccc(C(=O)N(Cc2ccccc2)C(C)C)cc1	96
30	CCOC(=O)C1=C(O)CN(C)C1=O	100
31	O=C(CCN1N=C(c2ccccc2)CCC1=O)N1CCC2(CC1)OCCO2	103
32	FC(F)(F)C1=Nc2ccccc2N(c2ccc(Cl)c(Cl)c2)C1	100
33	CC(C)C1Nc2ccc(C(=O)O)cc2C2C=CCC21 (stereo not drawn)	78*
34	CC1CCCN(C(=O)c2cc3ccccc3oc2=O)C1 (stereo not drawn)	99
35	O=C(CSc1ncnc2ccccc12)NC1CCCC1	101
36	Oc1c(C(c2ccccc2)N2CCCCC2)sc2ncnn12 (stereo not drawn)	98
37	O=C(c1ccno1)n1nccc1-c1cc(-c2ccccc2)no1	100
38	CCOC(=O)N1CCC(n2c(SCC(=O)NC(C)CC)nc3ccccc3c2=O)CC1 (stereo not drawn)	101
39	O=C(CN1C(=O)CCc2ccccc21)NC1CCCCC1	99
40	CCOC(=O)c1c2c3c(c(Cl)ccc3[nH]c1=O)C(=O)c1ccccc1-2	94
41	COC(=O)CN1C(c2ccc(OC)cc2)=Nc2ccc(Cl)cc2C1c1ccccc1 (stereo not drawn)	100
42	O=C1CCCC(=O)C1CC1C(=O)CCCC1=O	101
43	CN1N=C2c3ccccc3CCCC2C1c1cccs1 (stereo not drawn)	96
44	Clc1ccc(COC(Cn2ccnc2)c2ccc(Cl)cc2Cl)cc1 (stereo not drawn)	96
45	O=C(OCCN1CCOCC1)c1sc2ccccc2c1Cl	101
46	COc1ccc(-c2nc3ccccc3n2C(C)C)cc1OC	90
47	CC(C)(CO)NC(=O)c1ccc(Cl)cc1Cl	100
48	COc1cc(/C=C2/SC(=Nc3cc(C)cc(C)c3)NC2=O)cc(Br)c1OC	100
49	O=C(Nc1cccc2[nH]ncc12)c1ccco1	110
50	CC(=O)Oc1ccn(C)c(=O)c1C#N	100

Additional entries
no.	canonical_smiles	VACV E9 pol inh
51	COc1cccc(/C=N/N2C(=O)CSC2=S)c1O	101
52	CCN1C(=O)/C(=C\C=C\c2ccccc2)SC1=S	92
53	Cc1ccccc1Cn1c(=O)n(Cc2ccco2)c(=O)c2ccc(C(=O)NCCc3ccccc3)cc21	101
54	CC(=O)Oc1ccc2c(=O)c(-c3ccccc3)coc2c1	99
55	O=C(OCc1nc2ccccc2s1)c1ccc2c(c1)OCCO2	98
56	COc1ccc(C(=O)NC(c2ccc(C)cc2)c2cc(Cl)c3cccnc3c2O)cc1 (stereo not drawn)	91
57	CC(=O)Nc1ccc(NC(=O)/C=N/O)cc1	101
58	CC(CC(=O)O)CC(=O)Nc1ccccc1C(=O)O (stereo not drawn)	100
59	CN(C)C(=O)c1cnc(Cl)c2ccccc12	110
60	CCSc1ccc2nnc(-c3ccc(OC)cc3)n2n1	75
61	CC(=O)Nc1nc2ccccc2s1	101
62	O=C(COC(=O)Cc1ccc(-c2ccccc2)cc1)NCc1ccco1	84
63	CCCCN1C(=O)C(O)(CC(=O)c2ccccc2)c2ccccc21 (stereo not drawn)	104
64	Cc1cccc(NC(=O)CS(=O)(=O)c2cn(C)c3ccccc23)c1C	88
65	O=C1CCC(=O)N1CCc1c[nH]c2ccc(OCc3ccccc3)cc12	101
66	CC(NC(=O)c1ccccc1-c1ccccc1C(=O)O)c1ccccc1 (stereo not drawn)	98
67	Clc1ccc(-c2ccn[nH]2)cc1	99
68	COc1cc2c(cc1OC)CN(CC#N)CC2	102
69	COc1ccc(-c2nn(-c3ccc(C)c(Cl)c3)c3c2cnc2ccc(F)cc23)cc1OC	102
70	O=C(C1CCC(Cn2c(=S)[nH]c3ccccc3c2=O)CC1)N1CCN(c2ccc(Cl)cc2)CC1 (stereo not drawn)	88
71	O=S(=O)(c1ccc2c(c1)OCCCO2)N1CC=C(c2ccccc2)CC1	104
72	O=C(NC1CCCCCC1)c1csc2c1CCCC2	104
73	CN(C(=O)c1cccc(NC(=O)[C@H]2[C@@H]3C[C@@H]4[C@H]2C(=O)O[C@@H]4C3)c1)c1ccccc1	90
74	Cc1cc(C(F)(F)F)nc(SCCNC(=O)c2ccccc2F)n1	107
75	Cc1ccc(C)n1-c1ccc(-n2cccc2)cc1	99
76	Nn1c(C(=O)NCc2cccnc2)nc2ccccc2c1=O	98
77	Cc1cccc(NC(=O)C2COc3ccccc3O2)n1 (stereo not drawn)	99
78	Brc1cnc(-n2cccc2)nc1	115
79	CCCN1Cc2cccc(C(=O)Nc3ccc(S(=O)(=O)N4CCCCCC4)cc3)c2C1=O	99
80	CCN(Cc1ccncc1)C(=O)CC1(CC(=O)O)CCCC1	103
81	CC1CN=C(N(C(=O)Nc2ccccc2)c2cccc(C(F)(F)F)c2)S1 (stereo not drawn)	100
82	N#Cc1c(N)n(CCN)c2nc3ccccc3nc12	85*
83	CSc1ncccc1C(=O)OCc1cccc(C(F)(F)F)c1	97
84	CC(=O)Oc1ccc(OC(C)=O)c(S(=O)(=O)c2ccc(Cl)c(Cl)c2)c1	101
85	Cc1ccc(CNc2ccc3c(c2)ncn3C2CCCCC2)cc1	104
86	CC1(C)CNC(=O)c2sc(NC(=O)c3ccccc3Cl)nc2C1	105
87	CC(=O)Nc1cccc(-c2csc(Nc3cccc(O)c3)n2)c1	107
88	O=C1N=C(N2CCCCC2)S/C1=C\c1cccs1	101
89	Cc1cc2nc(S(=O)(=O)Cc3cccc(C(F)(F)F)c3)[nH]c2cc1C	100
90	NC(=O)/C=C/C(=O)Nc1ccccc1	101
91	OC(Cc1ccccc1)(c1ccccc1)c1ccccc1N=Cc1ccc2c(c1)OCO2 (stereo not drawn)	103
92	COC(=O)c1ccc(Oc2nc(OC)nc(N(C)C)n2)cc1	100
93	CCn1c(COc2ccccc2)nc2ccccc21	99
94	O=C(Nc1ccccc1)c1cc(=O)[nH]c2ccccc12	97
95	COc1cc(CCC(O)c2ccc(C)cc2)cc(OC)c1OC (stereo not drawn)	112
96	COc1ccc(CC(=O)Nc2cccc(-c3nnc(-c4ccco4)o3)c2)cc1	100
97	O=C(CCCN1C(=O)S/C(=C/c2ccccc2)C1=S)NC12CC3CC(CC(C3)C1)C2	101
98	CCn1c(=O)cc(SCC(=O)Nc2cccnc2)c2ccccc21	99
99	O=C(Cn1cnc2sc(-c3ccccc3)cc2c1=O)c1cccs1	94
100	O=C1NNC(SCc2ccc(Br)cc2)=Nc2ccccc21	106

(cont.)
no.	canonical_smiles	VACV E9 pol inh
101	CCNc1nc(NCC)nc(SCCOc2ccc(Br)cc2)n1	101
102	C=CCSc1nnc(Cc2c(C)[nH]c3ccccc23)o1	109
103	COc1ccc(NC(=O)c2cc(=O)c3ccccc3o2)cc1	99
104	CCCCC[C@H](O)/C=C/[C@@H]1[C@H]2C/C(=C/CCCC(=O)O)O[C@H]2C[C@H]1O	99
105	c1cc(C2OCC3(CO2)COC(c2ccncc2)OC3)ccn1 (stereo not drawn)	100
106	c1ccc2oc(SCCSc3nc4ccccc4o3)nc2c1	100
107	CC(C)c1ccc(NC(=O)C(c2ccccc2)N2CC(=O)Nc3ccccc32)cc1 (stereo not drawn)	105
108	Cc1cc2cc(CNC(=O)C3CCCCC3)ccc2[nH]1	96
109	CCC1=Nc2cc(C(=O)NCCCN3CCOCC3)ccc2Sc2ccc(Br)cc21	106
110	O=C(Cn1c(=O)sc2ccccc21)OC(C(=O)c1ccccc1)c1ccccc1 (stereo not drawn)	100
111	CC(O)c1nc2ccccc2n1C1CCCCC1 (stereo not drawn)	105
112	Cc1cc2c(cc1C)/C(=C\C(N)=O)NC(C)(C)C2	100
113	Cc1csc2sc(-c3ccnc(SCC(=O)NCc4ccccc4)n3)c(C)c12	112
114	Cc1oc2c(C)c(O)c(CN(C)C)cc2c(=O)c1-c1cnn(-c2ccccc2)c1	101
115	CC(C)C1Cc2c(sc3nc(SCc4ccc(Cl)c(Cl)c4)nc(N)c23)CO1 (stereo not drawn)	100
116	O=C(NCc1ccc2[nH]c3c(c2c1)CCCC3)c1ccccc1	101
117	Cc1ccccc1OCC(=O)Nc1cccc(N2C(=O)c3ccccc3C2=O)c1	99
118	O=C(O)c1cc(=O)c2cc(Br)ccc2o1	105
119	O=C(Nc1ccc(N2CCN(c3ccc(C(F)(F)F)cn3)CC2)nc1)c1ccco1	100
120	C/C(=N\N)c1nnn(-c2nonc2N)c1C	100
121	O=C(/C=C/c1ccc(O)c(O)c1)OCCc1ccccc1	98
122	Cc1ccc(-c2nc(Nc3ccccc3F)sc2C)cc1	60
123	Nc1cc(Cl)ccc1NCc1ccccc1	101
124	CN1C2CCC1CC(NC(=O)Nc1ccc(OC(F)(F)F)cc1)C2 (stereo not drawn)	93
125	Cc1ccc(SCc2cn3cccnc3n2)cc1	99

The closing two entries of the part before lead into the next.
no.	canonical_smiles	VACV E9 pol inh
124	CN1C2CCC1CC(NC(=O)Nc1ccc(OC(F)(F)F)cc1)C2 (stereo not drawn)	93
125	Cc1ccc(SCc2cn3cccnc3n2)cc1	99
126	CC(C)n1cc(-c2noc(-c3cccs3)n2)c(=O)n(Cc2ccccc2)c1=O	102
127	CCCN(CCC)S(=O)(=O)c1ccc(C(=O)NCc2ccc3c(c2)OCO3)cc1	100
128	C[N+]1(CCOS(=O)C23CC4CC(CC(C4)C2)C3)CCOCC1 (stereo not drawn)	105
129	CN(C)/C=C/C(=O)c1ccc(S(=O)(=O)c2ccccc2)cc1	96
130	CCC(C)OC(=O)C1=C(C)NC2=C(C(=O)CC(c3ccc(OC)c(OC)c3)C2)C1c1ccc(C)o1 (stereo not drawn)	104
131	CCCN(CCC)C(=O)Cn1nc(CC)n2c(cc3sc(C)cc32)c1=O	100
132	CC(C)(C)c1cc(C(F)(F)F)c2c(N)c(C(=O)NC3CC3)sc2n1	95
133	COc1cccc(NS(=O)(=O)c2ccc3[nH]cc(C(=O)N(C)Cc4ccccc4)c(=O)c3c2)c1	100
134	COc1cccc(-c2ncc(-c3ccccc3)o2)c1	90
135	CCC(C)NC(=O)C1CCC(CNS(=O)(=O)c2ccccc2)CC1 (stereo not drawn)	112
136	COc1ccc2c(c1OC)C(=O)N1c3ccccc3N=C(c3ccc(Br)cc3)CC21 (stereo not drawn)	93
137	CC(C)CC(=O)CC1(O)C(=O)Nc2ccccc21 (stereo not drawn)	108
138	CCc1ccc2ncc(S(=O)(=O)c3ccccc3)c(N3CCCC3)c2c1	101
139	CN(C1CCCCC1)S(=O)(=O)N1CCCC(C(=O)O)C1 (stereo not drawn)	100
140	CSC1=NCCCN1C(=O)c1c(-c2ccccc2Cl)noc1C	92
141	O=C1C2C3C=CC(C3)C2C(=O)N1CCO (stereo not drawn)	100
142	O=C(CN1C(=O)/C(=C\c2ccc(Cl)cc2)Sc2ccccc21)NCC1CCCO1 (stereo not drawn)	98
143	CC1(C)CC(=O)C=C(SCC(=O)Nc2cc(C(F)(F)F)cc(C(F)(F)F)c2)S1	114
144	CCOC(=O)c1cc(-c2ccccc2)n(CCC(=O)O)c1C	88
145	Cc1ccc(S(=O)(=O)c2c(C)nn(C(C)(C)C)c2OC(=O)C(C)C)cc1	100

An excerpt of these results, with each value named:
141. O=C1C2C3C=CC(C3)C2C(=O)N1CCO (stereo not drawn)
  VACV E9 pol inh: 100

142. O=C(CN1C(=O)/C(=C\c2ccc(Cl)cc2)Sc2ccccc21)NCC1CCCO1 (stereo not drawn)
  VACV E9 pol inh: 98

136. COc1ccc2c(c1OC)C(=O)N1c3ccccc3N=C(c3ccc(Br)cc3)CC21 (stereo not drawn)
  VACV E9 pol inh: 93
